Source: PubChem
Six1-Eya2 blk – inhibitors of human Six1/Eya2 interaction | activity change, % (concentration not given with the values) | AlphaScreen GST-Six1/His-Eya2 binding, biochemical; hits give low values; control for the full effect not named in the record | 360,000 tested, 0.56% active; in the data active = activity change below about -65%; inconclusive = about -30% to -65%; inactive = above about -30%; note: % is set by controls: 0 for no effect and ±100 for the full control effect
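Homogeneous AlphaScreen proximity assay pairing GST-Six1 with His-tagged Eya2 (added as 5X mix: 250 nM and 500 nM) in 50 mM Tris pH 8.0, 300 mM NaCl, 1 mM TCEP. Glutathione donor and nickel acceptor beads; 1 h, 37 °C, dark.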
CtBP-E1A blk – inhibitors of CtBP/E1A interaction; AlphaScreen GST-E1A/His-CtBP binding, 1536-well; hits give low values; control for the full effect not named in the record; 340,000 tested, 0.49% active; activity change, % (test concentration not listed); AID 651724; in the data active means activity change below about -65%; inconclusive means about -30% to -65%; inactive means above about -30%; note: % is set by controls: 0 for no effect and ±100 for the full control effect; compound concentration not given in the record
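AlphaScreen with 125 nM GST-E1A and 125 nM His-CtBP (5X stocks) in Tris pH 8.0, 300 mM NaCl, BSA, Tween 20, TCEP. Compounds preincubated 2 h at 37 deg C, then glutathione donor/nickel acceptor beads added for 1 h at 37 deg C in dark.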
D2 PAM – potentiates the human D2 dopamine receptor allosterically | DiscoveRx D2 beta-arrestin cells, luminescence, 90 min; 100% = 57 uM dopamine signal | P14416 | potentiation, % (test concentration not listed) | 360,000 tested, 0.23% active; active = potentiation of 50% or more; inconclusive = 30% to 50%; inactive = 30% or less;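 note: compound concentration not given in the record; tested on top of an EC20 dose of dopamine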
Target sequence (P14416 whole entry, looked up): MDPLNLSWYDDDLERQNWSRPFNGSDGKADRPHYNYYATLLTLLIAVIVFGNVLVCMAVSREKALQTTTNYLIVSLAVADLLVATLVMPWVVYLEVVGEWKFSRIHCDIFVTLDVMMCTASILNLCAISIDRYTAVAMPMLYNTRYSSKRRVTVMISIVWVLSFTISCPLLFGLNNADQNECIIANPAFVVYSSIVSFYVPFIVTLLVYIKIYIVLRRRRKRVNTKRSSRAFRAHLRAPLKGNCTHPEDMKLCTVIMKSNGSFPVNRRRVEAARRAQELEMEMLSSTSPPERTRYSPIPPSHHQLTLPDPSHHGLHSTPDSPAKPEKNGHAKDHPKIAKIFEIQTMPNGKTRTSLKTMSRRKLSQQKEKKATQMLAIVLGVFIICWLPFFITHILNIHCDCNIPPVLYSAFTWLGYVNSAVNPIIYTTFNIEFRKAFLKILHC
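PathHunter D2 cells, attached overnight at 37 deg C, received compound in DMSO plus dopamine at EC20 (50 nM final) for 90 min at 37 deg C. Beta-arrestin recruitment was read as luminescence after 1 h with detection reagent at ambient temperature.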
D2 ag – activates the human D2 dopamine receptor; P14416; activation, % (test concentration not listed); DiscoveRx PathHunter D2 beta-arrestin, luminescence, 90 min; 100% = 57 uM dopamine signal; 360,000 tested, 0.084% active; in the data active = activation above about 40%; inconclusive = about 15% to 40%; inactive = below about 15%; note: compound concentration not given in the record; the text of the record calls up to 30% inactive
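DiscoveRx PathHunter D2 beta-arrestin cells (2,100/well) attached overnight, then compound-stimulated 90 min at 37 C in HBSS/10 mM HEPES/0.1% Tween-20 buffer; beta-galactosidase complementation read by luminescence after 1 h at ambient temperature. Dopamine 57 uM final (EC100) as control.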
gsp ag – agonists of gsp mutant (McCune-Albright syndrome); gsp mutant cells, cAMP HTRF, 30 min; control for the full effect not named in the record; Potency, µM (doses to about 76.9 µM), inactives show top-dose activation (cAMP increase), most hits filed as activators; 340,000 tested, 0.13% active; active = well fitted activation curve with a large enough effect; inconclusive = small, poorly fitted or top-dose-only effect, or another doubt; inactive = no such curve, though single readings can be large or run the other way; cell line not stated here;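 note: phosphodiesterase inhibitor Ro 20-1724 added with compounds to block cAMP breakdown; potency is the fitted concentration of half-maximal effect; nearly all actives have a fitted effect of over 60% in size; about a fifth of the inactives were tested at one dose only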
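Cells stably selected in G418 were plated at 2000/well, grown 16-24 hr, then given compounds in DMSO with the PDE inhibitor […] (300 uM solution added) for 30 min at 37C; cAMP was read by HTRF.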
gsp antagonist – antagonists of gsp mutant (McCune-Albright syndrome); gsp-mutant cells, cAMP HTRF, 30 min; control for the full effect not named in the record; Potency, µM (top dose mostly 76.9 µM), without a hit: at the highest dose activity change, negative = inhibition, hits mostly inhibitors; 340,000 tested, 0.4% active; active = falling curve of any shape with a large fitted effect; inconclusive = falling curve, mostly with a smaller effect; inactive = flat or rising curve; cell line not stated here;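 note: intracellular cAMP measured with PDE inhibitor Ro 20-1724 present during compound exposure; potency is the fitted concentration of half-maximal effect; % is set by controls: 0 for no effect and ±100 for the full control effect; nearly all actives have a fitted effect of over 65% in size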
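Cells in G418 medium, seeded 16-24 h, 37C; buffer exchange to DPBS + 1 mM CaCl2, 0.5 mM MgCl2, 0.05% BSA; cpds in DMSO + […] (300 uM stock), 30 min 37C; HTRF cAMP detection.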
* hit, by the source's call; ? = inconclusive; / = not tested or not shown; [ ] = another dose, or the depositor's remark.

Letters: A = Six1-Eya2 blk; B = CtBP-E1A blk; C = D2 PAM; D = D2 ag; E = gsp ag; F = gsp antagonist
> CCCn1c2ccccc2c2cc(C(=O)O)ccc21
  A = 7	B = 1	C = -8	D = -4.9	E = 3%	F = -6%

> CC(=O)NC1=NN(C(C)=O)C2(CCCC2)S1
  A = 3	B = 2	C = 0	D = -4.0	E = 8%[15.4 µM]	F = 4%

> N#CCSc1nnc(-c2ccccc2O)n1Cc1ccccc1
  A = 1	B = 5	C = -8	D = -3.5	E = -3%	F = 3%

> S=c1[nH]nc(SCc2ccccc2)c2[nH]cnc12
  A = -18	B = -19	C = -18	D = -1.0	E = 14µM*	F = ?

> O=C(O)CN1C(=O)c2ccc(Oc3ccc([N+](=O)[O-])cc3)cc2C1=O
  A = 5	B = 5	C = -5	D = -1.4	E = -3%[15.4 µM]	F = 9%

> COc1ccc(OCCN(C)CC(=O)Nc2ccccc2SC)cc1
  A = -9	B = 7	C = -7	D = -2.4	E = 6%[15.4 µM]	F = 6%

> Cc1ccc(C)n1-n1cnc2sc3c(c2c1=O)CCCCC3
  A = -21	B = -13	C = -10	D = -3.2	E = 14%	F = ?

> COc1ccccc1N1CCN(C(=O)CSc2nc(-c3ccco3)cc(C(F)(F)F)n2)CC1
  A = -6	B = 0	C = -9	D = 1.5	E = 0%	F = ?

> CCCC(c1nnnn1C(C)(C)C)N1CCN(C(=O)c2ccco2)CC1 (centres undefined)
  A = 4	B = 2	C = -5	D = -2.1	E = -26%	F = -4%

> NS(=O)(=O)c1ccc(NC(=O)CCC(=O)c2ccc(Cl)s2)cc1
  A = -4	B = 2	C = -2	D = -0.8	E = 1%	F = 10%

> CC(=O)c1c(C)n(CC(=O)NCc2ccc3c(c2)OCO3)c2ccccc12
  A = -1	B = -2	C = 8	D = 2.6	E = -18%	F = -19%

> O=C(N/N=C/c1cc(Br)cc([N+](=O)[O-])c1O)c1ccc(NC(=O)c2ccc(F)cc2)cc1
  A = -11	B = -26	C = -27	D = -3.1	E = -37%[inhibitor]	F = 0%

> CCn1c(CNC(=O)c2cc(OC)c(OC)c(OC)c2)cc2ccccc21
  A = -1	B = 0	C = -8	D = 5.4	E = 2%	F = 3%

> O=C(O)CCCC1(C(=O)O)CCCC1
  A = 2	B = 8	C = -4	D = -1.3	E = 16%	F = 9%

> CSc1ccc(-c2nc(CSCC(=O)NCCCN3CCCC3=O)c(C)o2)cc1
  A = 12	B = 18	C = -3	D = 2.1	E = -88%[inhibitor]	F = -15%

> COc1ccc(CNS(=O)(=O)c2ccc(-c3ccc(=O)[nH]n3)s2)cc1OC
  A = 0	B = -4	C = 0	D = 0.3	E = 2%	F = 10%

> CCN(CCCNC(=O)c1nn(C)c2c1CS(=O)(=O)c1ccccc1-2)Cc1ccccc1
  A = 2	B = -7	C = -35	D = -5.4	E = ?	F = 1%

> C=CCOc1cccc(C2C(C(=O)c3ccco3)=C(O)C(=O)N2CCN(CC)CC)c1 (centres undefined)
  A = 1	B = -1	C = 5	D = -3.3	E = -19%	F = 12%

> O=C(C1CCOCC1)N1CCC(CO)(CCc2ccccc2)CC1
  A = 2	B = 1	C = -2	D = -3.3	E = -25%[15.4 µM]	F = 1%

> CC(C)[C@H](NC(=O)c1cccc(S(=O)(=O)N2CCOCC2)c1)C(=O)Nc1nc2ccccc2s1
  A = -6	B = -1	C = -7	D = -1.4	E = -11%	F = -1%

> CC(=O)NC(C)(CC(=O)c1ccccc1)c1ccccc1 (centres undefined)
  A = 5	B = /	C = 3	D = -2.5	E = -50%[inhibitor]	F = 18%

> COc1cc(C(=O)NC(=S)Nc2cccc3nc(C)ccc23)cc(OC)c1OC
  A = -2	B = 1	C = -5	D = 0.4	E = -24%[15.4 µM]	F = 0%

> Cc1ccc(NC(=O)Cn2cnc(C(=O)Nc3ccc(C)c(C)c3)n2)cc1C
  A = 3	B = 3	C = /	D = -2.4	E = /	F = 11%

> CC(NC(=O)CSc1nnnn1C1CC1)c1ccccc1Br (centres undefined)
  A = -1	B = /	C = -7	D = -3.2	E = 5%	F = 4%

> COc1cccc(-c2csc(N3CCN(CC(=O)NNC(=O)c4ccc(Cl)cc4)CC3)n2)c1
  A = -9	B = -21	C = -5	D = 1.7	E = 6%	F = -12%

Complete entries, quoted from the list. Order of screens: Six1-Eya2 blk | CtBP-E1A blk | D2 PAM | D2 ag | gsp ag | gsp antagonist
Listed for C=CCOc1cccc(C2C(C(=O)c3ccco3)=C(O)C(=O)N2CCN(CC)CC)c1 (centres undefined) → 1 | -1 | 5 | -3.3 | -19% | 12%
Listed for COc1ccc(OCCN(C)CC(=O)Nc2ccccc2SC)cc1 → -9 | 7 | -7 | -2.4 | 6%[15.4 µM] | 6%
Listed for CC(C)[C@H](NC(=O)c1cccc(S(=O)(=O)N2CCOCC2)c1)C(=O)Nc1nc2ccccc2s1 → -6 | -1 | -7 | -1.4 | -11% | -1%
Listed for CC(=O)NC1=NN(C(C)=O)C2(CCCC2)S1 → 3 | 2 | 0 | -4.0 | 8%[15.4 µM] | 4%
Listed for Cc1ccc(C)n1-n1cnc2sc3c(c2c1=O)CCCCC3 → -21 | -13 | -10 | -3.2 | 14% | ?

Remaining list, next part:
Values run as follows: Six1-Eya2 blk	CtBP-E1A blk	D2 PAM	D2 ag	gsp ag	gsp antagonist
> CCOC(=O)C1CCN(c2c(NC3CCCCCCC3)c(=O)c2=O)CC1
  4	2	-8	-1.0	-26%	-17%
> NS(=O)(=O)c1ccc(N2C(=O)C3C4CC(C(Br)C4Br)C3C2=O)cc1 (centres undefined)
  -15	6	2	1.5	-27%	4%
> CCC(C)(C(=O)NC1CCCC1)N(C(=O)CNC(=O)c1ccccc1)c1c(C)n(C)n(-c2ccccc2)c1=O (centres undefined)
  12	-12	2	1.4	-8%[15.4 µM]	11%
> Cc1noc(C)c1CSc1nnnn1-c1ccc(Cl)cc1
  -1	-1	-10	-1.9	14%	4%[15.4 µM]
> CCOC(=O)c1cn(Cc2ccc(C)cc2)c2cc(F)ccc2c1=O
  4	-3	3	-0.1	-38%[inhibitor]	-17%
> O=C(COC(=O)C1CCN(c2ccc(C(F)(F)F)cn2)CC1)c1cccc(Br)c1
  6	14	-27	-9.7	37%[15.4 µM]	-16%
> O=C(CSc1cccc[n+]1[O-])Nc1cccc(Oc2ccccc2)c1
  -3	3	-7	-0.4	7%[15.4 µM]	1%
> c1ccc(-c2cn3c(n2)CCC3)cc1
  -7	-1	-17	0.5	1%	-3%
> CC1(C)C2CC[C@]3(C)C(CC=C4[C@@H]5C[C@@](C)(CO)[C@@H](O)C[C@]5(C(=O)O)CC[C@]43C)[C@@]2(C)CC[C@@H]1O (some centres undefined)
  1	-4	-42	-9.6	/	7%
> COC(=O)[C@@H](NC(=O)Nc1cccc(Br)c1)C(C)C
  -7	-9	-2	-4.4	?	3%
> O=C(Nc1ccc(Oc2ccccc2)nc1)C1CCCCN1Cc1ccc(OCCO)cc1 (centres undefined)
  -4	/	13	?	21%	-8%
> CC(=O)N(CCCc1ccc(C(C)(C)C)cc1)CCCN(C)C
  1	-8	-5	-0.9	0%	1%

With a hit mark in gsp ag, among the entries above:
structure | Six1-Eya2 blk | CtBP-E1A blk | D2 PAM | D2 ag | gsp ag
S=c1[nH]nc(SCc2ccccc2)c2[nH]cnc12 | -18 | -19 | -18 | -1.0 | 14µM*
